# Assay outcomes deposited in PubChem BioAssay by National Center for Advancing Translational Sciences (NCATS).
# Rango-impB inh = Rango-importin beta binding inhibition; Q14974; Rango CFP/YFP FRET sensor + importin beta, 45 min; Potency, µM (top dose mostly 92.2 µM), without a hit: top-dose inhibition of complex formation; 340,000 compounds, 0.031% hits; AID 540263; active = rising FRET ratio curve, often small or poorly fitted; inconclusive = mostly compound fluorescence or quenching in the first reads; inactive = flat curves in all reads;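 note: potency is the fitted concentration of half-maximal effect; 0% = DMSO wells and 100% = buffer wells lacking importin beta; nearly all actives have a fitted effect of over 15% in size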
#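 Inhibition scored from the CFP 486 nm/YFP 530 nm FRET ratio 45 min after adding 0.125 microM importin beta to 50 nM Rango biosensor preincubated 5 min with compound (room temperature, PBS with DTT, Tween-20, BSA). No-importin wells as positive control.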
# miR-21 reporter = raises the signal of a miR-21 reporter. 340,000 tested, under 10 active. Potency, µM (top dose mostly 38.3 µM), inactives show top-dose reporter change, positive = more light. AID 2288. HeLa miR-21 FLuc reporter, luciferase, 48 h; active = well fitted rising curve with a large enough effect; inconclusive = small, poorly fitted or top-dose-only effect; inactive = no such curve, though single readings can be large or run the other way;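 note: % of control where 0% means no effect; miR-21 action dims this reporter so a rising signal means less miR-21 action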
#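 HeLa miR-21-FLuc reporter line, endogenous miR-21; 2000 cells/well in DMEM/10% FBS; compound titration up to ~40uM final, 48 h, 37 degree Celsius; luciferase detection reagent, 15 min lysis, CCD luminescence.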
# GLA inh pH 4.5 = blocks human alpha-galactosidase A at pH 4.5; purified enzyme, 4-MU-alpha-Gal fluorescence, pH 4.5; activity change, negative = inhibition, % at 105 µM; 230,000 tested, under 10 active; AID 1467; inconclusive = small, poorly fitted or top-dose-only inhibition, or a rising curve; inactive = flat fitted curve, though single readings scatter; no compound was filed as active;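 note: 0% = full activity with enzyme and -100% = basal without enzyme; dose as in the result columns while the protocol names 77 µM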
# Target sequence (P06280 whole entry, looked up): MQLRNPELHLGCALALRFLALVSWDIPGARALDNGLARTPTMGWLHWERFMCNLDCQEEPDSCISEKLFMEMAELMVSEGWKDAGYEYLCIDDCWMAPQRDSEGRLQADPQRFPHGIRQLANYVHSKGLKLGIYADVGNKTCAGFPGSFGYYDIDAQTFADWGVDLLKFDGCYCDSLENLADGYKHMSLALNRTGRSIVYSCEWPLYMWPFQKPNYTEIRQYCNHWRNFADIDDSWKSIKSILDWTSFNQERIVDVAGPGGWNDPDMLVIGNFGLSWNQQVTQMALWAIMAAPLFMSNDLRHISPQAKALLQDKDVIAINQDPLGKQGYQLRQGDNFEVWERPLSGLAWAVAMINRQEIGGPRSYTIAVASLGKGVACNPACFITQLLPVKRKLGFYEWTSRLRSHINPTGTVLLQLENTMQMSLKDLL
# Rango release inh = inhibition of RanGTP-driven Rango-importin beta dissociation | Biochemical FRET Rango-importin beta, RanGTP-induced dissociation | Potency, µM (doses to about 46.1 µM), for the others: at the top dose activity change, negative = inhibition | 340,000 compounds, 0.071% hits | O95149+P62826; active means falling FRET ratio curve, often poorly fitted, with flat reads before Ran was added; inconclusive means other falling curves, or compound fluorescence or quenching; inactive means flat or rising ratio curve;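 note: potency is the fitted concentration of half-maximal effect; % of control where 0% means no effect; nearly all actives have a fitted effect of over 45% in size; -100% = wells without RanGTP and RCC1; the record marks most hits as doubtful in a second field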
#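 Two FRET readings bracket the reaction: one 5 min after compound meets Rango–importin beta, another 45 min after RanGTP-RCC1 (0.6 uM Ran, 0.2 uM RCC1, 2 mM GTP) is added. Only the second defines inhibition.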
# * marks the source's active call; other numbers are inactive results; ? = inconclusive; / = not tested or not shown; & = joins results of further samples. This is a subset; rates above refer to the full screens.
compound,Rango-impB inh,miR-21 reporter,GLA inh pH 4.5,Rango release inh
COc1ccc(/C=C2\SC(=O)N=C2N)cc1OC,?,2%,-7,?
CC1(C(=O)CSc2ncn[nH]2)CCC(=O)O1 (stereo unspecified),/,-2%,0,/
CCCc1nc(NCc2ccccc2)c(C#N)c2c1CCCC2,0.3%,-1%,-17,11%
c1ccc(Nc2ccccc2)cc1,-1.2%,/,/,6%
CCCCNC(=O)C(CC)Sc1nc2sc(C(=O)OC)c(C)c2c(=O)n1N (stereo unspecified),-5.0%,-7%,5,8%
O=[N+]([O-])c1ccc(NN=Cc2cccc3ccccc23)nc1,?,/,/,?
O=C(COC(=O)c1cc(=O)[nH]c2ccccc12)Nc1ccccc1F,1.0%,/,/,-3%
Cn1c(=O)cc(OCCCC(=O)NCCN2CCN(c3ccccc3F)CC2)c2ccccc21,-1.0%,-9%,-3,4%
COc1ccc(CNC(=O)CN2C(=O)NC(c3ccccc3)(c3ccccc3)C2=O)cc1,-2.8%,/,/,4%
CCOC(=O)N1CCC(NC(=O)CCC(=O)N2CCOc3ccc(C)cc32)CC1,4.8%,-1%,-3,13%
COc1ccc(C(=O)COC(=O)CNC(=O)c2ccc(OC)cc2)cc1,-2.6%,-4%,2,-3%
CCOC(=O)c1c(C)[nH]c(C(=O)COC(=O)c2ccc(F)c(S(=O)(=O)N3CCOCC3)c2)c1C,-2.7%,-11%,9,-9%
COc1ccc(C(=O)NCCS(=O)(=O)NC2CCCC2)cc1,-0.8%,/,/,0%
COc1ccc(Nc2oc(-c3ccc(OC)cc3)nc2C#N)cc1,0.1%,-86%,5,0%
COc1ccc(NC(=S)NCC(O)c2ccccc2)c(OC)c1 (stereo unspecified),-0.6%,-9%,0,10%
CC(=O)Nc1ccc(S(=O)(=O)n2nc(C)cc2C)cc1,1.6%,-3%,1,9%
CCOc1ccc(NC(=O)CN(C)C(=O)Cn2c(=O)cnc3ccccc32)cc1OCC,2.6%,/,/,-10%
COc1ccccc1NC(=O)Cc1noc(CN(C)Cc2cccs2)n1,?,-2%,3,-17%
CN(C)S(=O)(=O)c1ccc(N=Cc2c(C(F)(F)F)[nH]n(C)c2=O)cc1,-0.7%,-1%,-2,31%
O=C(COC(=O)c1ccc[n+]([O-])c1)Nc1cc([N+](=O)[O-])ccc1Cl,0.1%,/,/,8%
Cc1ccc(NS(=O)(=O)c2cccc(C(=O)NN3CCOCC3)c2)cc1,/,1%,5,/
Cc1ccc(/C=C2\SC(=S)N(CCC(=O)N3CCOCC3)C2=O)cc1,3.4%,1%,/,-4%
Cc1cc(=O)oc2cc(OCC(=O)N3CC[C@@]4(O)CCCC[C@H]4C3)ccc12,-0.5%,1%,/,12%
O=C(CN=C1NS(=O)(=O)c2ccccc21)OCC(=O)c1ccccc1,-5.4%,2%,-3,-10%
COc1cc(CNCc2ccc(C)cc2)cc(OC)c1OC,-0.1%,3%,/,-2%
CCCNC(=O)NCc1ccc(N2CCCC2=O)cc1,-0.3%,0%,5,12%
O=C(C[n+]1cccc(/C=N/O)c1)N1CCCc2ccccc21,-2.5%,-1%,0,4%
Nc1cc(S(=O)(=O)O)cc([N+](=O)[O-])c1O,-3.6%,2%,5,21%
O=C(CNc1cccc(S(=O)(=O)N2CCCC2)c1)Nc1ccc(F)c(F)c1,3.9%,/,/,-5%
Cn1c(=O)[nH]c(=O)c2c1nc(CN1CCN(c3ccc(F)cc3)CC1)n2CCc1ccccc1,7.1%,-5%,3,-6%
COc1ccc(/C=C2\SC(=O)N(CCNC(=O)Cc3coc4cc(OC)ccc34)C2=O)cc1,4.5%,-23%,-4,-16%
CCCc1sc(N/N=C/c2ccccn2)nc1-c1ccc(F)cc1,2.3%,8%,-9,-20%
CC(C)(C)OC(=O)NN1CC(=O)N2Cc3[nH]c4ccccc4c3C[C@H]2C1=O,-0.9%,-3%,/,-12%
CCOC(=O)N1CCN(S(=O)(=O)c2ccc(OC)c3ccccc23)CC1,-1.5%,-3%,-7,-18%
COC(=O)c1ccccc1NC(=O)Nc1cccc(C)n1,-1.6%,-1%,-9,1%
Cc1cc(C(=O)CN2C(=O)CN(C)C2=O)c(C)n1-c1cccc(S(=O)(=O)N2CCOCC2)c1,?,2%,-2,2%
CN(C)CC/C=C1/c2ccc(F)cc2Sc2ccc(Cl)cc21,0.7%,/,/,48%
Cc1ccccc1NC(=O)COC(=O)COc1ccc2c(c1)CCC2,-0.5%,/,/,-20%
O=C(NC1CCCC1)C(c1cccnc1)N(C(=O)c1ccco1)c1ccc(F)cc1 (stereo unspecified),0.4%,2%,/,-17%
COc1cccc(Nc2nc(-c3ccc(O)cc3)cs2)c1,1.0%,-29%,2,1%
O=C(N/N=C/c1ccc(Cl)c([N+](=O)[O-])c1)c1ccc2nc[nH]c2c1,3.5%,19%,1,-2%
Cc1ccc(-c2nc(CSc3nc4ccccc4c(=O)n3CCO)cs2)cc1,3.0%,-2%,-12,?
COc1ccccc1C(=O)Nc1ccc2c(c1)OCO2,6.1%,-64%,-14,-7%
CCOC(=O)COc1coc(CN2CCN(c3ccccc3)CC2)cc1=O,3.3%,1%,/,-10%
CCOc1cc(NS(=O)(=O)c2ccc(NC(C)=O)cc2)c(OCC)cc1NC(=O)C(C)C,-7.1%,0%,9,-21%
Cc1ccc(NC(=O)CCCn2nc(C)c3c(C)n(-c4ccccc4)nc3c2=O)c(Cl)c1,5.1%,1%&-6%,/,6%
Cc1cccc(OCC(=O)NCC2CCCO2)c1C (stereo unspecified),1.1%,-9%,1,?
CCOC(=O)Cc1c(C)c2c(O)cc(O)cc2oc1=O,?,0%,5,?
CCOC(=O)c1ccc(NC(=O)CSc2nc(C)nc3c2c(=O)n(C)c(=O)n3C)cc1,0.1%,2%,-2,1%
O=C(Cc1c[nH]c2ccccc12)OCC(=O)c1ccccc1,2.1%,-12%,0,1%

# Additional compounds
compound,Rango-impB inh,miR-21 reporter,GLA inh pH 4.5,Rango release inh
CN1CCN(C2CCN(c3cccc(Cl)c3)CC2)CC1CCO (stereo unspecified),-3.1%,-2%,/,-14%
CC(=O)NN1C(=O)c2ccc(Oc3cccc([N+](=O)[O-])c3)cc2C1=O,1.2%,0%,7,1%
COc1ccc(NS(=O)(=O)c2cc(N/C(=N\S(=O)(=O)c3ccccc3)c3ccc(F)cc3)ccc2Cl)cc1,-1.4%,26%,-12,4%
CC1(C)Cc2cccc(OCC(=O)Nc3ccc(OCC(N)=O)cc3)c2O1,-1.0%,-10%,-4,3%
Nc1nc(NCCc2ccccc2)nc(NCc2ccccc2)c1[N+](=O)[O-],0.8%,-3%,/,-5%
O=C(NC1CCN(Cc2ccccc2)CC1)c1ccccc1NS(=O)(=O)c1ccc(F)c(F)c1,-1.1%,/,/,9%
CC[C@]12c3[nH]c4ccc(Cl)cc4c3CCN1C(=O)[C@@H](CC(=O)NCc1cccc(C(F)(F)F)c1)C[C@@H]2C(=O)N1CCN(C(=O)c2ccco2)CC1,-2.5%,/,/,-9%
CN(CC(=O)Nc1c(Cl)cccc1Cl)C(=O)CCCN1C(=O)c2ccccc2C1=O,-4.4%,1%,19,1%
O=C(COc1cccnc1[N+](=O)[O-])Nc1ccc(Cl)c(S(=O)(=O)N2CCOCC2)c1,-2.7%,4%,-4,3%
O=C(CCl)Nc1ccc(N2CCCCCC2)cc1,-0.1%,?,6,9%
Cc1cccc(N2CCCn3c2nc2c3c(=O)n(CC(=O)OCc3ccccc3)c(=O)n2C)c1,/,1%,-1,/
O=C(CN(Cc1ccccc1Cl)C(=O)c1csnn1)NCc1ccc2c(c1)OCO2,-0.7%,10%,/,12%
Cc1c(C(=O)N/N=C/c2ccc(N3CCOCC3)cc2)nc2ccccn12,-0.6%,-1%,5,11%
O=C(CCC1CCCN(C(=O)CC2=CCCCC2)C1)N1CCN(c2ccccn2)CC1 (stereo unspecified),0.2%,16%,-3,-6%
Cc1cccc(NC(=O)CCC(=O)N2CCOCC2)n1,-2.5%,/,/,-14%
CC(C)(C)N(Cc1ccccc1)C(=O)COC(=O)c1ccccc1SCC(=O)N1CCCC1,-0.4%,/,/,-16%
Cc1ccc(NNC(=O)CCc2ccccc2)c(C)c1,-10%,-28%,-13,-3%
COc1ccc(CCNC(=O)COC(=O)c2ccc(C)s2)cc1,1.3%,/,/,6%
CCc1ccc(NC(=O)Nc2cccs2)cc1,-1.2%,-44%,0,-19%
CC(C)(C)[C@H]1C=C(C(=O)NCc2ccccc2)O[C@@H](OCc2ccc(CO)cc2)C1,-1.3%,2%,0,6%
CCn1c(C)cc(=O)cc1-c1ccc(Cl)cc1,-3.1%,0%,/,0%
CC(=O)c1ccc(NC(=O)CSc2nnc(-c3ccncc3)o2)cc1,-0.3%,/,/,18%
Cc1cc(C)c(O)c(CN(C)Cc2cc(Cl)cc(Cl)c2O)c1,?,/,/,-1%
Cc1ccc(-c2nnc(N(C)C(=O)C3CCCO3)s2)cn1 (stereo unspecified),3.9%,-26%,5,-6%
O=C(CSCc1c(Cl)cccc1Cl)Nc1ccccc1-c1ccccc1,-0.1%,-3%,2,-12%
C#CC[N+]1(CC#Cc2ccc(C#CC[N+]3(CC#C)CCOCC3)cc2)CCOCC1,-5.2%,2%,0,1%
Cc1cccc(C(=O)Nc2nc3ccc(S(C)(=O)=O)cc3s2)c1,0.0%,-45%,/,2%
CC(C)(C)OC(=O)N1CCC(CNC(=O)c2cccs2)CC1,-2.3%,-4%,-17,-12%
CCOC(=O)N1CCN(C(=O)c2nc3ccccc3s2)CC1,-2.7%,-39%,1,12%
COc1cccc(C(=O)NNC(=O)c2ccc3ccccc3c2O)c1,0.5%,/,/,4%
O=C(Cn1ccccc1=O)NCc1ccc(F)cc1,-2.3%,-9%,/,-16%
COc1ccc(/C=N/N2C(=O)CSC2=S)cc1Br,11%,/,/,6%
O=C(Nc1ccc(-n2cccn2)cc1)C1CCN(Cc2ccsc2)CC1,-0.2%,-1%,/,13%
COc1ccccc1NC(=O)CN1CCN(c2ccccn2)CC1,1.4%,-10%,-3,22%
FC(F)(F)c1nc(NCc2ccccc2)c2nnn(Cc3ccccc3)c2n1,3.0%,-2%,/,1%
CCCSc1nnc(-c2c[nH]c3ccccc23)n1CC,?,-15%,-4,-9%
NC(=O)C1CC(=O)N(c2ccc(OCC(=O)Nc3ccc(F)cc3)cc2)C1 (stereo unspecified),0.8%,/,/,-13%
Cc1cccc(/C=N\NC(=O)c2csnn2)c1,1.5%,-13%,-6,7%
O=C(COC(=O)CNS(=O)(=O)c1c(F)cccc1F)NC(=O)NC1CCCCC1,-0.3%,/,/,0%
Cc1cccc(C)c1N1CCN(S(=O)(=O)N(C)C)CC1,0.0%,-2%,5,2%
Cc1cc(C)cc(Nc2nc3c(S(=O)(=O)c4ccccc4)nnn3c3ccccc23)c1,-0.4%,2%,0,1%
O=C(CSC(=S)N1CCCC1)Nc1cc2c(cc1Br)OCCO2,0.4%,3%,/,36%
COc1ccc(/C=C(\C#N)C(=O)NCc2cccs2)cc1OC,1.2%,-9%,-11,?
O=C(NCCCN1CCOCC1)c1ccc(Sc2ccccc2Cl)c([N+](=O)[O-])c1,-0.4%,-12%,-20,2%
Cc1ccc(S(=O)(=O)CCC(=O)OCC(=O)N(C)c2ccccc2)cc1,3.0%,/,/,-13%
CCc1nnc(NC(=O)CN2C(=O)/C(=C/c3ccc(OC)c(OC)c3)SC2=S)s1,/,-4%,-20,/
